# VACV mCherry inh: vaccinia inhibition (mCherry reporter) | Potency, µM (doses to about 36.5 µM), without a hit: top-dose activity change, negative = inhibition, most hits filed as inhibitors | hit rate 0.63% among 310,000 | Vaccinia virus mCherry reporter infection, fluorescence; about a quarter of the inactives have no number; active = well fitted inhibition curve with a large enough effect; inconclusive = small, poorly fitted or top-dose-only effect; inactive = no such curve, though single readings can be large or run the other way; tested in A549 cells; note: nearly all actives have a fitted effect of over 35% in size; inactives centre near -10
# VACV Venus inh: vaccinia inhibition (Venus reporter); Vaccinia virus Venus reporter expression, fluorescence; Potency, µM (series often up to 36.5 µM), without a hit: top-dose activity change, negative = inhibition, hits mostly inhibitors; hit rate 0.46% among 330,000; active means well fitted inhibition curve with a large enough effect; inconclusive means small, poorly fitted or top-dose-only effect; inactive means no such curve, though single readings can be large or run the other way; tested in A549 cells; note: nearly all actives have a fitted effect of over 30% in size; inactives centre near -10
# Numbers without * were called inactive; i = inactive; ? = inconclusive; . = no result given; & = joins results of further samples; [ ] = another dose, or the depositor's remark. % is set by controls: 0 for no effect and ±100 for the full control effect; potency is the fitted concentration of half-maximal effect. This is a random part of the collection; any-hit rate near 0.87%.
SMILES,VACV mCherry inh,VACV Venus inh
C[C@]12c3[nH]c4cc(-c5ccco5)ccc4c3CCN1C(=O)[C@@H](CC(=O)NCCc1ccccn1)C[C@@H]2C(=O)N1CCOCC1,?,-15%
C[C@@H](O)CNC(=O)c1[nH]cnc1C(=O)Nc1cccc(Cl)c1,1%,-15%
COc1ccc(NC(=O)N(C)C[C@@H]2OCc3cn(nn3)CCCC(=O)N([C@H](C)CO)C[C@H]2C)c(OC)c1,-35%,0%
Cc1cc(C)cc(CC(=O)N2CCC2(C)C(=O)NS(=O)(=O)c2ccccc2C)c1 (stereo not given),27%,1%
Cc1cccc(-n2c(SCC(=O)Nc3nonc3C)nnc2-c2ccoc2C)c1,-21%,-10%
Cc1cccc(C(=O)OCc2cc(=O)n3nc(-c4cccs4)sc3n2)c1,-11%,-6%
CC(C)CN=C(NS(=O)(=O)c1ccccc1)C(Cl)(Cl)Cl,?,?
CCOC(=O)c1sc2ccccc2c1S(=O)(=O)Nc1cccc(C(F)(F)F)c1,-9%,-3%
CCOc1ccc(S(=O)(=O)N2CCC(C(=O)NCc3ccncc3)CC2)cc1C,?,-30%
O=C1c2ccccc2-c2c1cccc2C(=O)N1CCCCCC1,-19%,-21%
CCOc1ccc(-c2nc(CCl)cs2)cc1OC,-4%,-13%
CCNC(=O)c1sccc1-n1cccc1,-13%,-8%
COc1ccc(CNC(=O)C2CCN(S(=O)(=O)c3ccc(N4CCCC4=O)cc3)CC2)cc1,i,-19%
O=C(Cn1c(=O)n(Cc2ccccc2)c(=O)c2sc3ccccc3c21)Nc1ccc(F)cc1,-21%,-28%
COc1cc2c(cc1OC)C(C)N(C(=O)c1cccs1)CC2 (stereo not given),-26%,-10%
O=C(CSC1=Nc2ccccc2N=C(c2ccc(F)cc2)C1)NCc1ccccc1,-21%,-24%
O=C(Nc1nccs1)C1CC(=O)N(Cc2ccco2)C1 (stereo not given),-11%,-7%
CC(=O)Nc1c(C)nn(-c2ccccc2)c1N1CCC(C(=O)NCc2cccc(Cl)c2)CC1,-4%[7.34 µM],0%[7.34 µM]
COc1ccccc1CCNC(=O)C(=O)c1cn(CC(=O)N2CCCC2)c2ccccc12,-19%,-17%
COc1ccc(-n2nc(C(=O)N3CCCC(C)C3)c3c4ccccc4n(C)c3c2=O)cc1Cl (stereo not given),-25%,-27%
c1ccc(-c2cc(N3CCOCC3)nc(-c3ccccc3)n2)cc1,i,-8%
Cc1ccc(-c2noc(C(C)NC(=O)c3ccco3)n2)cc1 (stereo not given),-5%,-3%
NS(=O)(=O)c1ccccc1NC(=O)c1c(O)c2ccccc2[nH]c1=O,-11%,-7%
CCC(C)[C@@H](N)C(=O)N/N=C/c1ccc2ncccc2c1 (stereo not given in full),0%,-10%
COc1cc([N+](=O)[O-])ccc1NC(=O)COC(=O)c1ccc(NC(N)=O)cc1,i,-7%
CCOc1ccc(CN2CCN(Cc3cccn3-c3nccs3)CC2CCO)cc1 (stereo not given),-9%,-16%
CCOC(=O)c1[nH]c2ccccc2c1NC(=O)c1cc(OCC)c(OCC)c(OCC)c1,-26%,-20%
O=C(Nc1cccc(C(=O)N2CCCc3ccccc32)c1)c1ccccc1,-12%,?
CC(C)c1[nH]nc2c1C(c1cccc(OC(=O)N3CCOCC3)c1)C(C#N)=C(N)O2 (stereo not given),.,7%
CC(C)C(NS(=O)(=O)c1cccc(C(F)(F)F)c1)C(=O)N1CCc2ccccc2C1 (stereo not given),?,-5%
CCOC(=O)c1c(N2C(=O)Nc3ccccc3N2O)sc2c1CCCC2,-9%,-16%
CC(C)c1ccc(NC2CCCN(C(=O)CN3CCOC3=O)C2)cc1 (stereo not given),-1%,-9%
COC(=O)C1=C(C)N(c2ccc(OC)c(OC)c2)C(=O)/C1=C\c1cccs1,i,-4%
O=[N+]([O-])c1cc(S(=O)(=O)C(F)(F)F)ccc1NCC1CCCO1 (stereo not given),-16%,-14%
COc1ccc(/C=C2\SC(=S)NC2=O)cc1OS(=O)(=O)c1ccc(NC(C)=O)cc1,-7%,-13%
CCOC(=O)c1oc2ccccc2c1NC(=O)COC,-15%,-4%
Cc1ccc(OCCN2C(=O)C(=O)c3cccc(C)c32)cc1,?,5%
CCCN1C(=O)c2ccccc2NC1c1cc(OC)c(OC)c(OC)c1 (stereo not given),-9%,-7%
Cc1cccc(N2C(=O)CC(c3ccc(F)cc3)C3=C2COC3=O)c1 (stereo not given),-2%,-2%&-7%
Cc1ccc(CCNC(=O)C2CCC(=O)N2CCc2ccccc2)cc1 (stereo not given),-10%,-20%
CN(CC(=O)Nc1c(Cl)cccc1Cl)C(=O)CNC(=O)c1ccc2c(c1)OCO2,-11%,-11%
Cn1c(COc2ccc(Cl)cc2Cl)nnc1SCC(=O)NCC1CCCO1 (stereo not given),-26%,-15%
Brc1ccccc1-c1nnc(SCc2nc3ccccc3s2)o1,i,3%
O=C(Nc1cccc(O)c1)c1cc(-c2cccs2)on1,-24%,-6%
Cc1cccc(-c2ccc3c(c2)C2CC3CCN2)c1 (stereo not given),-20%,-8%
COC(=O)Cn1c(=NC(=O)CSCC(=O)NC2CCCCC2)sc2cc(OC)ccc21,.,?
O=C(c1ccccc1)N1CCN(C2CC(=O)N(CCc3ccccc3)C2=O)CC1 (stereo not given),-8%,-19%
CCc1ccc(NC(=O)CCNC(=O)Cn2ccc3ccccc3c2=O)cc1,-12%,-1%
CC1C(=O)N(Cc2cn(CC3CCCCC3)nn2)CCS(=O)(=O)N1Cc1ccc(-c2cccc(CO)c2)cc1 (stereo not given),-13%,-27%
N/C(CN1CCCC1=O)=N\OC(=O)c1ccc(Cl)c(Cl)c1,-23%,-24%
COc1ccccc1NS(=O)(=O)c1ccc(N/N=C/c2ccccc2OCC(=O)O)c([N+](=O)[O-])c1,-22%,-10%
Cc1ccc(-n2nnnc2C(=Cc2ccc(N(C)C)cc2)c2nnnn2-c2ccc(C)cc2)cc1,-1%,-1%
O=C(NCCN1CCOCC1)c1cc([N+](=O)[O-])cc([N+](=O)[O-])c1,i,-11%
O=C(O)c1cc(-n2nnnc2SCc2ccc([N+](=O)[O-])cc2)ccc1Cl,-21%,-12%
CC(C)CCNC(=O)CN(Cc1cccs1)C(=O)CCC(=O)Nc1nccs1,i,-6%
CCOC(=O)c1ccccc1NS(=O)(=O)c1ccc(N2CCCCS2(=O)=O)cc1,-11%,-11%
CC(C)(C)c1ccccc1NC(=O)Nc1nc(C(N)c2ccccc2)cs1 (stereo not given),0%,-24%
O=C(NC(=S)N1CCN(Cc2ccc3c(c2)OCO3)CC1)c1cccc(Br)c1,?,-25%
N/C(=N\OC(=O)c1cc([N+](=O)[O-])ccc1Cl)c1cccnc1,i,-6%
COc1ccc2oc(C(=O)NCC(Cc3ccccc3)N(C)C)c(C)c2c1 (stereo not given),-21%,-2%
# Following part:
SMILES,VACV mCherry inh,VACV Venus inh
OC(c1ccc(-c2ccccc2)cc1)c1ncc(-c2cccc(F)c2)[nH]1 (stereo not given),-16%,-18%
CC(C)C(C)(C#N)NC(=O)CSc1nc(C2CCCCC2)n(-c2ccccc2)n1 (stereo not given),-17%,-23%
CC1CN(C(=O)c2cc(-c3ccc(Cl)s3)nc3ccccc23)CC(C)O1 (stereo not given),?,?
Nc1ncnc2c1ncn2[C@@H]1O[C@H](CNCc2ccccc2OC2OC(CO)C(O)C(O)C2O)[C@@H](O)[C@H]1O (stereo not given in full),0%,-17%
CC(=O)c1c(C)[nH]c(C(=O)N2CCCCCC2)c1C,4%,6%
COc1ccccc1-n1nnnc1SCC(=O)N(CC(C)C)C1CCS(=O)(=O)C1 (stereo not given),i,-12%
CN(c1ccc(F)cc1)S(=O)(=O)c1ccc(Cl)c(C(=O)NCC2CCCO2)c1 (stereo not given),i,1%
O=C(COc1ccccc1[N+](=O)[O-])N/N=C/c1ccc(O)cc1,i,-9%
COC(=O)C1=C(C)N(CCc2ccc(OC)cc2)C(=O)C1,.,-12%
CC(Nc1oc(-c2ccc(COc3ccc(Cl)cc3)o2)nc1C#N)c1ccccc1 (stereo not given),-25%,-15%
Cc1ccc(/S(C)=N/S(=O)(=O)c2ccc(C)cc2)cc1 (stereo not given),.,-29%
O=C(NCc1ccco1)Nc1ccc2snnc2c1,-18%,-2%
C=CCNC(=S)NCc1ccccc1OC,10%,-2%
CN(Cc1cccs1)C(=O)c1cccc(S(=O)(=O)N2CCCCCC2)c1,i,-9%
Cc1ncc2c(c1CNS(=O)(=O)N(C)C)CCN(C(=O)/C=C/c1ccccc1F)C2,-19%,-9%
Cc1ccnc2ccc(N)cc12,-15%,-7%
CCN(CC)S(=O)(=O)c1cc(NC(=O)CNc2cccc(S(=O)(=O)N3CCOCC3)c2)ccc1C,-10%,?
CCC(=O)Nc1cccc(C2=NOC3(C2)C[C@@H](C(N)=O)N(C(=O)c2cc([N+](=O)[O-])cc([N+](=O)[O-])c2)C3)c1 (stereo not given in full),i,-7%
O=C(CCNC(=O)c1ccc(Cl)cc1)NCC(c1ccco1)N1CCCC1 (stereo not given),i,-12%
COc1cc([C@H]2Oc3c(OC)cc(CCCO[C@@H]4O[C@H](CO)[C@@H](O)[C@H](O)[C@H]4O)cc3[C@@H]2CO)ccc1O,10%,8%
O=C(OCc1cccc(Cl)c1)c1cc(S(=O)(=O)N2CCCCC2)ccc1N1CCOCC1,-11%,-30%
Cc1ccccc1C(=O)N1CCN(c2ncccn2)CC1,-14%,-13%
Cc1ccc(C2(C)NC(=O)N(CC(=O)Nc3ccccc3C(=O)N3CCCCC3)C2=O)cc1 (stereo not given),i,-14%
Cc1ccc2c(c1)C(c1ccccc1)N(C(=O)c1ccc(Br)o1)CC(=O)N2 (stereo not given),5%,-19%
COc1cc(NC(=O)C/C(C)=N/NC(=O)C2CCCCC2)c(OC)cc1Cl,-24%,-2%
CCC(C)N1CCNCC1 (stereo not given),i,-11%
Cc1ccc(/C=N/NC(=O)c2ccc3nc[nH]c3c2)o1,i,-9%
Cc1ccn(CCNC(=O)C2CCC(=O)N(CCc3ccc(Cl)cc3)C2)n1 (stereo not given),-6%,-17%
COC(=O)C1=C(c2ccccc2)C[C@@H]2CC[C@H]1N2C(=O)N1CCC(O)CC1,i,?
CC(C)Cc1nnc(NC(=O)C2CCN(C(=O)c3ccc(F)cc3)CC2)s1,-23%,-9%

# Shown tab-delimited: part of the list above.
molecule	VACV mCherry inh	VACV Venus inh
COc1ccccc1-n1nnnc1SCC(=O)N(CC(C)C)C1CCS(=O)(=O)C1 (stereo not given)	i	-12%
C=CCNC(=S)NCc1ccccc1OC	10%	-2%
Cc1ccc2c(c1)C(c1ccccc1)N(C(=O)c1ccc(Br)o1)CC(=O)N2 (stereo not given)	5%	-19%
COC(=O)Cn1c(=NC(=O)CSCC(=O)NC2CCCCC2)sc2cc(OC)ccc21	.	?

# More structures follow.
SMILES,VACV mCherry inh,VACV Venus inh
Cc1ccc(S(=O)(=O)NCC(c2ccc3c(c2)OCO3)N2CCN(c3ccccc3)CC2)cc1 (stereo not given),-13%,-9%
COc1cccc(-c2ccnc(-n3ncc(C(=O)NCC4(N5CCCCC5)CCCC4)c3C)n2)c1,-8%,7%
CCOc1cc(S(=O)(=O)n2ccnc2)ccc1Cl,-10%,-5%
CC(=O)c1ccc(N(C)C)cc1,.,-2%
Cc1c(C(=O)Cc2ccccc2)n(C)c2ccccc12,-18%,-2%
COc1ccc2c(c1)OC[C@H]1[C@H]2N2C(=O)c3ccc(F)cc3NC(=O)[C@@]2(C)[C@H]1c1ccccc1,18µM*,?
COc1ccc2[nH]c(=O)c(C(=O)O)cc2c1,-5%,-3%
Cc1cccc(NC(=O)N2CCC(CN3CCCCCC3)CC2)c1C,-10%,-10%
COCCCn1c(=O)c2sccc2n2c(CCCC(=O)NCc3ccc(F)cc3)nnc12,-2%&-8%,0%&-4%
COc1c(Cl)cc(Br)c(OC)c1C(=O)NC(=O)Nc1nc(C)cc(C)n1,-1%,-6%
COc1ccc(Cl)cc1NC(=O)C(=O)NC1CCCCCC1,.,15%

# Given tab-delimited: 4 of the compounds above.
Structure	VACV mCherry inh	VACV Venus inh
Cc1cccc(NC(=O)N2CCC(CN3CCCCCC3)CC2)c1C	-10%	-10%
COCCCn1c(=O)c2sccc2n2c(CCCC(=O)NCc3ccc(F)cc3)nnc12	-2%&-8%	0%&-4%
COc1c(Cl)cc(Br)c(OC)c1C(=O)NC(=O)Nc1nc(C)cc(C)n1	-1%	-6%
COc1ccc(Cl)cc1NC(=O)C(=O)NC1CCCCCC1	.	15%

# High-throughput results: PubChem BioAssay, National Center for Advancing Translational Sciences (NCATS)
